# Compound activity: PubChem BioAssay, Center for Chemical Genomics, University of Michigan
# TAR Tat displ – HIV-1 TAR-Tat binding disruption | HIV-1 TAR RNA, Tat peptide displacement FRET; hits give high values | z-score (no concentration beside the values) | 0.6% of 100,000 active | AID 1259389;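 also: score is relative to mean and SD of negative controls; some compounds called inactive have numbers as strong as hits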
# CDC25B CDK2 inh – human CDC25B-CDK2/CyclinA binding inhibition; HTRF CDC25B-CDK2/CyclinA binding, anti-His/anti-Flag; hits give high values; z-score (concentration not given with the values); 0.72% of 94,000 active; AID 1259370;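 also: score is relative to mean and SD of negative controls; strong numbers were not always called active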
# Starred values were filed as active, the others as inactive; . = no result given.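 The calls were made as follows: active = z-score from 3 up in half or more of its runs; inactive = the rest.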
SMILES,TAR Tat displ,CDC25B CDK2 inh
COc1ccc2c(c1)c(=O)oc1cc3occ(-c4ccc(Cl)cc4)c3cc12,-0.47,0.44
Cc1noc2ncnc(N(C)CCO)c12,0.82,.
CCCc1nn2c(=O)cc(CSc3ccccc3C(=O)O)nc2s1,-0.27,-3.1
O=C(O)c1ccc2c(c1)C1C=CCC1C(c1ccc(Cl)cc1)N2 (configuration not stated),19*,-0.83
O=C1NC2(CCCCC2)N=C1c1ccc(Cl)cc1,.,-0.24
CN(C)CCNC(=O)CSCc1nc2cccnc2n1C1CCCCC1,-2.8,.
C=CCOc1ccc(C2c3c(oc4ccc(C)cc4c3=O)C(=O)N2Cc2ccc3c(c2)OCO3)cc1 (configuration not stated),1,-0.57
OC[C@H]1OC(n2cnc3c(N[C@H]4CCC[C@@H]4O)ncnc32)[C@H](O)[C@@H]1O (some centres not stated),.,-2.4
Fc1ccc(OCCSc2nc3ncccc3[nH]2)cc1,0.53,.
O=C(Cn1c(=O)oc2cc(Cl)ccc21)N1CCN(c2ccc(F)cc2)CC1,1.1,.
O=c1[nH]c2ccccc2c(O)c1Cc1ccccc1,.,-2.6
Cc1c(S(=O)(=O)c2ccccc2)nnn1-c1cccc(F)c1,0.78,-0.47
O=S(=O)(c1ccccc1)c1nnn2c1nc(Cl)c1ccccc12,.,-0.49
Clc1ccc(OCCCCn2cnc3ccccc32)cc1,0.45,-2.5
Cc1nn2c(-c3ccc(F)cc3)nnc2c2c1nnn2Cc1ccc(F)cc1,2.3,-1.5
CC1CCN(c2c(-c3ccc(Cl)cc3)c(=O)c2=O)CC1,-1.1,.
CC(C)(C)c1ccc(OC(=O)c2ccc([N+](=O)[O-])s2)cc1,.,-1
O=C(Nc1cc(-c2cccc(Cl)c2)no1)c1noc2c1CCCC2,0.1,.
Cc1ccc(/C(O)=C2\C(=O)C(=O)N(c3nccs3)C2c2ccc(F)cc2)cc1 (configuration not stated),0.97,0.56
Cc1ccc(Cl)cc1NCc1nnc2n1CCCCC2,0.52,.
COc1cc(OC)c(NC(=O)NCc2noc3ccccc23)cc1Cl,1.2,.
O=C(O)CCCN1C(=O)C(=O)/C(=C(/O)c2ccccc2)C1c1ccc(F)cc1 (configuration not stated),.,0.43
O=C(Nc1ccccc1Cl)N1CCN(c2ccc3nnc(-c4ccc(F)cc4)n3n2)CC1,.,0.3
CC(C)C12CN3CC(C(C)C)(CN(C1)C3c1cc(Br)ccc1O)C2=O (configuration not stated),-1.3,0.72
COc1ccc(-c2csc3ncnc(N(C)Cc4ccccc4)c23)cc1,1.1,.
# (continued)
SMILES,TAR Tat displ,CDC25B CDK2 inh
Cc1ccc(/C=C/c2nc(C#N)c(N3CCNCC3)o2)cc1,0.65,1.4
CCOc1cccc(-c2cc(C(=O)N3CCN(c4ccccc4OCC)CC3)c3ccccc3n2)c1,.,-0.95
CCCS(=O)(=O)c1oc(-c2ccc(F)cc2)nc1S(=O)(=O)c1ccc(Br)cc1,-2,-5.7
CCS(=O)(=O)c1nc(S(=O)(=O)c2ccc(C)cc2)c(NCCCOC)s1,1.2,-1
COc1cccc(-c2noc(NCCc3ccsc3)n2)c1OC,-0.39,.
N#Cc1c(F)cccc1NCCc1ccc(Cl)cc1,.,-0.43
Cc1ccc(S(=O)(=O)NC2c3ccccc3Oc3ccccc32)cc1,1.5,0.58
COc1cc(Cl)c(NS(=O)(=O)c2ccc3c(c2)CC(C)N3C(=O)C2CCC2)c(OC)c1 (configuration not stated),-0.09,.
COC(=O)C1=C(C)Nc2ncnn2C1c1cccnc1 (configuration not stated),0.42,-2.3
Cn1cnc(S(=O)(=O)N=S(C)(=O)c2ccc(Cl)cc2)c1 (configuration not stated),.,-2.2
CC(C)CCNC(=O)Cn1c(=O)n(CC2CCC(C(=O)N3CCCC3)CC2)c(=O)c2sccc21 (configuration not stated),-0.12,.
COCCCN1CCn2c(nc3ccccc32)C1,-0.7,-0.83
CC1CC(C)CN(S(=O)(=O)c2ccc(-n3cccn3)cc2)C1 (configuration not stated),1.9,.
O=C1OCc2ccc([N+](=O)[O-])cc21,.,-3.4
O=c1cc(-c2cc(O)c3c(O)c4ccccc4c(O)c3c2O)c(=O)c2c(=O)c3ccccc3c(=O)c1=2,.,-0.71
CC(C)N(Cc1c[nH]c2ccccc12)C(=O)Nc1ccccc1,.,-2.6
Cc1cc(C)c2c(C)c(C(=O)N(Cc3sccc3C)C3CCS(=O)(=O)C3)oc2c1 (configuration not stated),-0.16,-2.8
CCC(C)NC(=O)Nc1ccc2c(c1)N(CC)C(=O)c1ccccc1S2 (configuration not stated),0.71,2.3
c1ccc(-n2nnnc2Oc2cccc(CNCc3ccccn3)c2)cc1,1.9,.
O=C(NCc1ccccc1Br)c1ccc2c(c1)nc1n2CCOC1,1.2,.
COc1cc(C2c3c(oc4ccccc4c3=O)C(=O)N2c2nncs2)ccc1O (configuration not stated),0.64,1.4
CC(C)(C)c1csc(NC(=O)CSc2ccc(F)cc2)n1,1.2,.
CC(C)OCCCNC(=O)c1ccc2c(=O)[nH]c3c(C(=O)NC4CCCC4)sc(=S)n3c2c1,2.1,.
Cn1c(CCc2ccc(NS(=O)(=O)c3ccccc3F)cc2)nc2ccccc21,1.2,.
O=C(Nc1nccs1)c1ccc2c(=O)n3c(nc2c1)CCCCC3,1.2,-1.2
# Other results
SMILES,TAR Tat displ,CDC25B CDK2 inh
Cn1ncc2c(Nc3ccccc3)nc(NC3CCN(Cc4ccccc4)CC3)nc21,-0.48,.
CC(=O)Nc1ccc(S(=O)(=O)NC2CCS(=O)(=O)C2)cc1 (configuration not stated),0.9,-0.1
CC(C)CCn1c(SCc2nc(-c3ccccc3)no2)nc2cc3c(cc2c1=O)OCO3,1.3,.
Cc1cccc(NC(=O)C2CCC(CNc3c(N4CCC(C)CC4)c(=O)c3=O)CC2)n1 (configuration not stated),0.54,-0.51
Cc1cccc(-c2nc3c4c(C)c(C)n(-c5ccccn5)c4ncn3n2)c1,0.14,-0.8
CCOc1ccc(-n2c(-c3ccccc3)c[n+]3c2CCC3)cc1,1.6,-2
COCCCNc1oc(-c2ccc(COc3ccc(C)cc3)o2)nc1C#N,0,-1.4
CC12CN3CC(C)(CN(C1)C3c1cc(Br)ccc1O)C2O (configuration not stated),1.2,0.04
COCCOC(=O)C1=C(C)NC2=C(C(=O)CC(c3ccccc3)C2)C1c1ccccc1F (configuration not stated),0.35,-2.3
c1coc(-c2cc(C3CCNCC3)[nH]n2)c1,-4.4,-0.24
COc1ccc(-c2nc3c(c(SCC(N)=O)n2)Cc2c(ccc4ccccc24)O3)cc1,-0.58,-0.53
CCc1ccc(OCc2cc(=O)n3nc(C)sc3n2)cc1,-0.63,0.11
Cc1nc(N2C(=O)c3oc4ccccc4c(=O)c3C2c2cccc(O)c2)sc1C (configuration not stated),-0.61,-1.8
Fc1ccc(-n2cc(-c3ccccc3)c3c(N4CCCC4)ncnc32)cc1,0.68,.
CC(C)(C)C1=CC(O)(c2ccccc2)C=C(C(C)(C)C)C1=O,.,-2.1
COc1ccc(C2Oc3ccccc3C3CC(c4cccnc4)=NN32)cc1 (configuration not stated),-0.2,-1.1
O=C(CNC(=O)c1ccc(Cl)cc1)OCc1cc(=O)n2nc(C3CC3)sc2n1,0.8,.
Cc1cccc(C(=O)N2N=C(CCC(C)C)CC2(O)C(F)(F)F)c1 (configuration not stated),.,-0.02
Cc1cc(C)cc(OCc2nc(-c3ccc(Cl)cc3)no2)c1,-0.67,-0.33
Cc1cc(=O)n2[nH]c(NC(=O)c3cccs3)nc2n1,-0.06,-0.85
COc1ccc(OC)c(Nc2nc(-c3cccnc3)cs2)c1,2.1,-6.3
COc1ccccc1CNc1nc2c(S(=O)(=O)c3ccccc3)nnn2c2ccccc12,2.6,-2.2
CCOC(=O)Cn1c(C2CC(=O)N(c3ccccc3)C2)nc2ccccc21 (configuration not stated),0.32,-0.33
CC1=NN(C(=O)c2csc(C)c2C)C(O)(C(F)(F)F)C1 (configuration not stated),.,-0.51
COc1ccc(-c2noc(-c3nnn(-c4ccc(F)cc4)c3C)n2)cc1OC,1.1,.
# Other entries follow.
SMILES,TAR Tat displ,CDC25B CDK2 inh
Cc1ccsc1/C=C/c1cc(C(F)(F)F)[nH]c(=O)n1,-0.2,-1.8
Cn1cc(-c2cc3n(n2)CCC(=O)N3CC(=O)N2CCN(c3ccccn3)CC2)c2ccccc21,0.12,.
O=C(CN1C(=O)CCc2cc(Br)ccc21)NCc1cccs1,1.1,.
CC(=O)Nc1sc2c(c(=O)c1O)CCCC2,-0.45,-1.3
Cn1c(=O)c2c(-c3ccc(Cl)cc3)n(C(C)(C)C)cc2n(C)c1=O,3.5,-2
COCCCN1CC(O)=C(c2nc3ccccc3[nH]2)C1=N,0.31,-2.9
CCOc1ccc2nc(SCC(=O)NCC(=O)c3ccccc3)sc2c1,.,-7.7
COc1ccc([C@H]2Oc3cc(OC)cc(OC)c3C[C@H]2O)cc1,0.68,.
Cc1cc(NS(=O)(=O)c2ccc(-c3ccc(=O)[nH]n3)s2)ccc1Br,-0.48,.
c1ccc(-c2cnnc(SCc3cn4cccnc4n3)n2)cc1,-0.69,-2.1
COc1ccc2c(c1)nc(CN1CCCC1)n2C,1.6,-2.2
CCc1c(C)nc2ncnn2c1Nc1ccc(N2CCN(S(C)(=O)=O)CC2)cc1,2.3,-1.5
CC1CCc2c(sc3nc(-c4ccco4)oc(=O)c23)C1 (configuration not stated),-0.05,1.2
CCOc1ccc(N2C(=O)C3C(c4ccccc4)OC4(C(=O)c5ccccc5C4=O)C3C2=O)cc1 (configuration not stated),.,-0.84
Cc1cc(-c2ccc(C(C)C)c(S(=O)(=O)Nc3ccccc3F)c2)on1,0.16,.
Cc1cc(C)cc(C(=O)Nc2c(C)nc3sccn3c2=O)c1,1.4,.
CCn1c(=O)c2cc(C(=O)N(CC(C)C)CC(C)C)sc2c2ccccc21,0.89,0.38
O=C(CSc1nc2ccccc2[nH]1)OCN1C(=O)c2ccccc2C1=O,.,-2.1
COc1ccc(C2CC(c3c(O)n(C)c(=O)n(C)c3=O)=Nc3ccccc3S2)cc1OC (configuration not stated),2.3,20*
C=CCOC(=O)C1C(c2cccc(Br)c2)c2c([nH][nH]c2=O)CC1(C)O (configuration not stated),-1,-1
COc1ccc(-c2noc(NC3CCC(C)CC3)n2)cc1 (configuration not stated),-0.11,-0.23
N#Cc1nccnc1S(=O)(=O)CCO,.,-0.35
CC(=O)c1ccc(N2CCN(S(=O)(=O)c3ccc(S(=O)(=O)c4ccccc4)s3)CC2)cc1,.,-1.8
Clc1ccc(N2CCCCCCC2)nn1,.,-2.7
CCOc1ccc(S(=O)(=O)N2CCN(c3cc(N(C)C)nc(C)n3)CC2)cc1,0.32,-1.6
# More entries follow.
SMILES,TAR Tat displ,CDC25B CDK2 inh
COc1ccc(OCCN2C(=O)C(=O)c3ccccc32)cc1,1.9,-1.9
Nc1ccc2nn(-c3cccc(Cl)c3)nc2c1,4*,-0.74
CCCN1C(=O)C2(c3ccccc31)c1c(oc3cc(C)c(C)cc3c1=O)C(=O)N2CCCOC(C)C (configuration not stated),2.2,-1.1
CC(NC(=O)Nc1ccc(Br)cc1F)c1c(-n2cccc2)sc2c1CCCC2 (configuration not stated),0.99,0.02
Cn1cccc1Cc1nnc(SCC(=O)Nc2ccc3c(c2)OCO3)n1-c1ccc(F)cc1,-0.47,0.31
COc1ccc(C2C(C(=O)OC3CCCC3)=C(C)NC3=C2C(=O)CC(C)(C)C3)cc1O (configuration not stated),1.3,-1.7
CSc1ccn(-c2nc(-c3ccccc3)sc2-c2ccccc2)c(=O)n1,2.7,-2.4
CC(C)c1ccc(OCc2nc(-c3ccncc3)no2)cc1,0.43,0.5
O=C(Nc1cccc(Cl)c1)c1cccc(NC(=O)c2ccccc2I)c1,.,-1.6
O=C(NCCc1ccsc1)c1noc2c1CSc1ccccc1-2,1.2,-2.3
CCOC(=O)C1CCN(S(=O)(=O)c2cc(-c3n[nH]c(=O)c4c3CCCC4)ccc2C)CC1,0.02,-0.32
COC(=O)C1C2C=CC3(CN(c4ccccc4Cl)C(=O)C13)O2 (configuration not stated),1.7,-0.54
